nsP2pro inh = inhibitors of chikungunya virus nsP2 protease | Q8JUX6 | FRET peptide cleavage, nsP2pro, fluorescence 1 h | Potency, µM (highest dose often 24.9 µM), for the others: at the highest dose activity change, negative = inhibition, hits mostly inhibitors | 1.1% of 31,000 active | AID 1964107; active means well fitted inhibition curve with a large enough effect; inconclusive means small, poorly fitted or top-dose-only effect; inactive means no such curve, though single readings can be large or run the other way; also: nearly all actives have a fitted effect of over 60% in size; a reference inhibitor and vehicle were the controls
* = called active by the depositor; i = inactive; ? = inconclusive; & = joins results of further samples; [ ] = remark or other dose. % is scaled to controls: 0 for no effect and ±100 for the full control effect; potency is read from the fitted curve at half-maximal effect. This is a subset; the hit share may differ from the screen's.

SMILES	nsP2pro inh
O=C(Cn1nc(-c2ccc(F)cc2)ccc1=O)NCCc1ccccc1	1%
OC1CCOC2(CCN(Cc3cccnc3)CC2)C1 (centres undefined)	-1%
COc1ccc(OC)c(C(=O)Nc2nc(-c3ccccc3)cs2)c1	i
O=[S+]([O-])(Nc1ccc(N2CCNCC2)cc1)c1ccc(NCc2ccc(Cl)cc2O)cc1	-14%
CN(Cc1nc2ccc(F)cc2[nH]1)C(=O)c1cn(CCN)nn1	i
Cc1ccc2c(=O)cc(C(=O)Nc3ccc(S(=O)(=O)N4CCCCCC4)cc3)oc2c1C	-12%
COc1ccc(C(=O)c2sc3nc4c(c(C(F)(F)F)c3c2N)CN(C(C)=O)CC4)cc1OC	-4%
CCCN1CC2(CCN(C)CC2)CC1C(=O)N(C)Cc1nnc(C)o1 (centres undefined)	-8%
CCOc1ccc(NC(=O)CCCOc2cc(=O)n(C)c3ccccc23)cc1	-11%
CN1CCc2c(c3ccccc3n2Cc2ccccc2)C1	-3%
COC1=CC(=O)CC(C)C12Oc1cc(OC)cc(O)c1C2=O (centres undefined)	5%
COc1ccc(Cn2c(SCC(=O)Nc3ccc(OC)cc3)nc3ccccc32)cc1	-14%
NC(=O)c1c(NC(=O)c2ccco2)sc2c1CCCC2	i
CC(C)c1ccc(N2C(=O)CSC23C(=O)N(Cc2ccccc2)c2ccccc23)cc1 (centres undefined)	-19%
COc1cccc(NC(=S)N2CCN(c3cc(C(F)(F)F)cc(C(F)(F)F)c3)CC2)n1	-6%

7 records picked at random from the list so far, as already listed:
SMILES	nsP2pro inh
NC(=O)c1c(NC(=O)c2ccco2)sc2c1CCCC2	i
COC1=CC(=O)CC(C)C12Oc1cc(OC)cc(O)c1C2=O (centres undefined)	5%
OC1CCOC2(CCN(Cc3cccnc3)CC2)C1 (centres undefined)	-1%
Cc1ccc2c(=O)cc(C(=O)Nc3ccc(S(=O)(=O)N4CCCCCC4)cc3)oc2c1C	-12%
CCCN1CC2(CCN(C)CC2)CC1C(=O)N(C)Cc1nnc(C)o1 (centres undefined)	-8%
O=[S+]([O-])(Nc1ccc(N2CCNCC2)cc1)c1ccc(NCc2ccc(Cl)cc2O)cc1	-14%
CN(Cc1nc2ccc(F)cc2[nH]1)C(=O)c1cn(CCN)nn1	i

More structures follow:
SMILES	nsP2pro inh
N#CC1=C2SCN(C3CCCCC3)CN2C(=O)CC1c1ccc(Cl)cc1 (centres undefined)	72%[activator]
O=[S+]([O-])(c1ccc(-c2ccccc2)cc1)N1CCN([S+](=O)([O-])c2ccc3c(c2)OCCO3)CC1	-1%
COC(=O)c1ccccc1NC(=O)c1ccc(F)cc1	?
COc1ccc(N(C(=O)Oc2c(C)cccc2C)c2ccnc(Nc3ccc(N4CCN(C)CC4)cc3)n2)c(OC)c1	53%[activator]
O=C1CCCC2=C1C(c1ccccc1Cl)N=C(c1ccccn1)N2 (centres undefined)	-6%
Cc1nc(-c2ccccc2)sc1-c1ccc(SCC(=O)Nc2ccc(F)cc2F)nn1	-16%
Cc1ccccc1C(=O)N1CCC(N2CCCNC2=O)CC1	-20%[39.2 µM]
Cc1ccc(NS(=O)(=O)c2cc3c(cc2C)NC(=O)CO3)cc1C	-5%
O=C(CS(=O)(=O)c1cccc2nsnc12)Nc1ccc(F)cc1F	-18%
O=C(NC1CCCCC1)c1cc2c(Cl)nc3ccccc3c2s1	-19%
N#Cc1ccc([C@H]2CCc3cncn32)c(F)c1	1%
Cc1cc(C)cc(NC(=O)Cn2nnc(-c3ccccc3F)n2)c1	-11%
Cc1noc(-c2ccncc2)c1C(=O)NCCCCc1ccccc1	2%
COc1cc2c(cc1NC(=O)c1ccccc1C)n(C)c(=O)n2C	1%
C=C(C)C(C)C1OC23CC4(CO2)C(CCC2C5(C)CCC(OC6OCC(O)C(OC7OC(CO)C(O)C(OC8OCC(O)C(O)C8O)C7O)C6OC6OC(CO)C(O)C6O)C(C)(C)C5CCC24C)C3C(C)(O)C1OC(C)=O (centres undefined)	-11%[5.1 µM]
CCCN1CCC(N2C[C@H]3OC(=O)N(CCc4cccc(Cl)c4)[C@H]3C2)CC1	i
O=C1c2ccccc2NC(c2ccccc2O)N1Cc1ccccc1 (centres undefined)	-5%
Cc1ccc(CNC(=O)c2cc(NS(=O)(=O)c3ccc(C)cc3)ccn2)cc1	-18%
CCCCCCCCn1cc(CN(CC)CC)c2cc(-c3cnc(N)nc3)ccc21	98%[activator]
CN1CCN(c2c(F)cc3c(=O)c(C(=O)O)cn4c3c2OCN4C)CC1	-5%[10 µM]
CC(C)Oc1cccc(-c2ccnc(N3CCC(C(N)=O)CC3)n2)c1	-4%
CC(C)(C)n1nc(Cc2cccc([N+](=O)[O-])c2)c2c(N)ncnc21	i
COc1ccc(C2Oc3ccccc3C(=O)N2Cc2ccccc2)cc1COc1ccc(NC(C)=O)cc1 (centres undefined)	-1%
Cc1cccc(CNc2ccnc(-c3ccccc3C(F)(F)F)n2)c1	1%
O=C(Nc1cccc(F)c1)N1Cc2[nH]cnc2C[C@H]1c1nc(-c2ccncc2)no1	i
CCN1c2cc(C(=O)Nc3cccc(F)c3)ccc2C(=O)N2CCCC21 (centres undefined)	-19%
Clc1cccc(-n2cc(-c3ccccc3)c3c(NC4CCCC4)ncnc32)c1	-15%
CC(=O)NCCCC(=O)N1CCOC2(CCN(C(=O)NC(C)C)CC2)C1	-7%
O=S(=O)(c1ccc2c(c1)OCCO2)N1CCN(S(=O)(=O)c2cc(F)c(Br)cc2F)CC1	i
CCOC(=O)C1CCCN(C(=O)c2ccc(-n3ccc4ccccc43)s2)C1 (centres undefined)	-20%
Brc1c(Br)c(Br)c2n[nH]nc2c1Br	67%[activator]
CC1(C(=O)O)CCCC2(C)C3CC4C5CC3(CCC12)CC45C (centres undefined)	35%
COc1ccc(CN2CCN(c3nc4ccccc4o3)CC2CCO)c(F)c1 (centres undefined)	-14%
CCC(CC)C(=O)Nc1ccccc1SCc1cc(=O)c2cccc(C)c2[nH]1	-11%
Cc1c(C(=O)NCc2cccnc2)nn(-c2ccc(Cl)cc2Cl)c1-c1ccc(Cl)cc1	48%[activator]
COC1OC(O)C2(CCC3(O2)C(C)CC2OC(=O)C4(C)CCCC3(C)C24)C1O (centres undefined)	-4%
Cc1nc2c(c(C)c1CCC(=O)Nc1cccc(C(F)(F)F)c1)c(=O)n(C)c(=O)n2C	-18%
O=C(NC1CCCCC1)N1Cc2[nH]cnc2C[C@H]1c1nc(-c2ccc(Cl)cc2)no1	4.5µM*
O=C(CCCn1c(=O)c2sccc2n(Cc2c(F)cccc2Cl)c1=O)NCc1ccccc1	-12%
Cc1cc(C)cc(N2CC(c3nc(-c4ccccc4C)no3)CC2=O)c1 (centres undefined)	-12%
O=Cc1ccc(-c2ccc3ncnc(NCc4cccs4)c3c2)o1	i
COc1ccc(N2CCN(C(=O)CSc3nc4ccccc4nc3Cc3ccc(Cl)cc3)CC2)cc1	-15%
N#Cc1c(-c2cccc(Br)c2)no[n+]1[O-]	i
C[C@H]1CC(=O)Nc2cccc(-c3cnn(C(C)(C)C)c3)c2N1	-11%
Cc1cccc(N2CCN(S(=O)(=O)c3c(C(=O)N4CCC(C)CC4)c(C)n(C)c3C)CC2)c1C	-26%

Part of the list above in order of SMILES length, smallest number first.
SMILES	nsP2pro inh
N#Cc1c(-c2cccc(Br)c2)no[n+]1[O-]	i
Cc1c(C(=O)NCc2cccnc2)nn(-c2ccc(Cl)cc2Cl)c1-c1ccc(Cl)cc1	48%[activator]
O=C(NC1CCCCC1)N1Cc2[nH]cnc2C[C@H]1c1nc(-c2ccc(Cl)cc2)no1	4.5µM*

Continued.
SMILES	nsP2pro inh
CCCS(=O)(=O)N1CC(=O)N(c2ccc(C)cc2C)C(C)(C(=O)NC2CCCCCC2)C1 (centres undefined)	-21%
Cc1c(OCc2cccc(-c3ccc(C(=O)O)cc3)c2)cc2c(c1C)C(=O)C(C1CCCC1)C2 (centres undefined)	104%[activator]
Cc1ccc(C)c(CN2CCCN(Cc3cc(C)ccc3C)S2(=O)=O)c1	-16%
CNCCCC12CCC(c3ccccc31)c1ccccc12	0%&7%
Cc1ccc(-n2nc(CO)c(C(=O)NCCc3ccccc3)n2)cc1C	-15%
Cc1ccc(CNc2ccc(N3CCNCC3=O)cc2)cc1	3%
COc1cc2c(cc1OC)n(Cc1cccc(C(F)(F)F)c1)c(=O)n1nc(-c3ccccc3)nc21	-10%
Cc1ccc(N2CC(NC(=O)c3cccs3)CC2=O)cc1C (centres undefined)	-6%
Cc1ccccc1Cn1c(SCc2ccc(C(=O)NCc3cccs3)cc2)nc2ccncc21	17%
CC(C)c1ccc(NC(=O)C2CCN(S(=O)(=O)c3cccc4nonc34)CC2)cc1	-20%
COc1ccc(N2C[C@]34C=C[C@H](O3)C(C(=O)O)C4C2=O)cc1 (some centres undefined)	0%
C/C(=C/CO)CC[C@@H]1[C@@](C)(O)CCC2C(C)(C)CCC[C@]21C (some centres undefined)	7%
CCCCCCCCCCCCCCOc1ccc(C(=O)O)o1	-30%
COC(=O)c1ccccc1S(=O)(=O)Nc1ccc(OC)cc1	i
COc1cccc(C(=O)Nc2ccc(-n3nncc3-c3ccc(Br)cc3)cc2)c1OC	-11%
CCOc1ccc(CNS(=O)(=O)c2ccc3[nH]c4c(c3c2)CCCC4)cc1OC	-36%
N#Cc1ccc(-c2ccc(CNc3ccc(N4CCC(C#N)CC4)cc3)o2)cc1	10µM*
COc1ccc(-c2coc3c2c(C)cc2oc(=O)cc(C)c23)cc1	-14%
Cc1cc(C)nc(NC(=S)N2CCN(c3ccc(Cl)cc3S(C)(=O)=O)CC2)c1	i
O=C(O)c1cccc(-c2ccc(-c3cn(C(=O)N4CCCCC4Cc4ccccc4)nn3)cc2)c1 (centres undefined)	102%[activator]
CCOc1ccc(N(CC)C(=O)c2ccc3c(c2)N(S(C)(=O)=O)CC3)cc1	-2%
COc1ccc(-c2ccc3nc(-c4ccc(F)cc4F)oc3c2)c(OC)c1OC	-3%
COc1cccc(-c2nc3cc(NC(=O)c4ccc(C)c([N+](=O)[O-])c4)ccc3o2)c1	-7%
CCc1ccccc1NS(=O)(=O)c1ccc2c(c1)OCC(C(=O)N1CCCC1)O2 (centres undefined)	-8%
COc1ccc(-c2cc(C(C)=O)c(C)n2CCC(=O)NCc2ccc(F)cc2)cc1	-6%
O=C1C2CC=CCC2C(=O)N1SC(Cl)(Cl)Cl (centres undefined)	1.8µM*
CCC(C(=O)NCc1c(C)ncc2c1CCNC2)n1cccn1 (centres undefined)	-18%
CCCc1nnc(NC(=O)Cc2coc3ccc(C)cc23)s1	-8%
Cc1ccc(NC(=O)N2CCCN(CCn3nc4n(c3=O)CCCC4)CC2)cc1F	-8%
CNC(=O)C1CCC(Cn2c(=O)c3sccc3n(CC(=O)Nc3ccc(C)c(C)c3)c2=O)CC1 (centres undefined)	-14%

Copied from the list.
nsP2pro inh result of `COc1ccc(-c2cc(C(C)=O)c(C)n2CCC(=O)NCc2ccc(F)cc2)cc1` → -6%
nsP2pro inh result of `CCC(C(=O)NCc1c(C)ncc2c1CCNC2)n1cccn1` (centres undefined) → -18%
nsP2pro inh result of `CCOc1ccc(N(CC)C(=O)c2ccc3c(c2)N(S(C)(=O)=O)CC3)cc1` → -2%
nsP2pro inh result of `COc1ccc(-c2coc3c2c(C)cc2oc(=O)cc(C)c23)cc1` → -14%
nsP2pro inh result of `CCOc1ccc(CNS(=O)(=O)c2ccc3[nH]c4c(c3c2)CCCC4)cc1OC` → -36%

More entries follow:
SMILES	nsP2pro inh
COCCC1(NC(=O)c2ccccc2)CCN(Cc2ccc(F)cc2F)CC1	-2%
Clc1cccc(-c2ccc3ncnc(NCc4cccs4)c3c2)c1	1%
O=C(C1CCC1)N1[C@H]2CC[C@@H]1c1cnc(-c3ccccc3)nc1C2	-4%
Clc1cccc(CSc2nc(NCCc3ccccc3)c3ccccc3n2)c1	-7%
O=C(C1CCOCC1)N1CCC(c2nc(C3CCOCC3)no2)CC1	i
C=CCc1ccccc1OCC(O)CNC(C)C (centres undefined)	-10%&-2%
C=C1CCC2C(OC(=O)C2(O)COC(C)=O)C2C(=C)C(O)CC12 (centres undefined)	1%
CC1(C)CCCC2(C)C1C(O)C=C(CO)C2(O)CO (centres undefined)	?
OC[C@H]1O[C@@H](OC[C@H]2O[C@@H](O[C@@H]3[C@@H](O)[C@H](O)O[C@H](CO)[C@H]3O)[C@H](O)[C@@H](O[C@@H]3O[C@H](CO)[C@@H](O)[C@H](O)[C@H]3O)[C@@H]2O)[C@H](O)[C@@H](O)[C@@H]1O	-3%
CCC1C(O)C2C3CCC(C(C)CCC(=O)O)C3(C)CCC2C2(C)CCC(O)CC12 (centres undefined)	-20%
COc1cccc([S+](=O)([O-])N2CCC3(C2)C(=NC2CCCCC2)NC(=O)N3c2cc(F)cc(F)c2)c1 (centres undefined)	3%
CCc1ncc2c(N3CC4CCC(C3)N4CC(F)(F)F)nc3ccccc3n12	-6%
Cc1c(P(=S)(c2ccccc2)c2ccccc2)[n+]2ccccc2n1C	i
O=C(Nc1cccc(C(F)(F)F)c1)N1CC2CCCN2c2ccccc21 (centres undefined)	-13%
CCNC(=O)c1ccc(-c2ccc3ncnc(NCCc4cnc[nH]4)c3c2)o1	-14%
O=S(=O)(c1cccc(Cl)c1)c1nnn2c1nc(NCc1ccc3c(c1)OCO3)c1sccc12	-9%
C=C1CCC2C(C)(COC(C)=O)CCCC2(C)C1CCC(C)CC(=O)O (centres undefined)	11%
Cc1cc(C)c2nc(-c3ccccn3)cc(C(=O)Nc3ccc(S(=O)(=O)Nc4onc(C)c4C)cc3)c2c1	64%[activator]
O=S(=O)(c1ccc2c(c1)OCCO2)N1CCN(S(=O)(=O)c2cccc(Cl)c2F)CC1	-5%
Cc1cc(C)n2ncc(C(=O)Nc3ccccc3C)c2n1	3%
C[C@H](N)[C@H](O)c1cccc(O)c1	-2%
C=C(C)[C@@]12O[C@@H]1[C@@]1(C)C(=C[C@H]2O)CC[C@@H](O)[C@@H]1C	-12%
Cc1cc2c(s1)c1cnn(Cc3c(Cl)cccc3Cl)c(=O)c1n2C	0%
Cc1cccc(Cc2cnc(NC(=O)C3Cc4ccc(C)cc4C(=O)O3)s2)c1 (centres undefined)	-24%

Screens deposited in PubChem by National Center for Advancing Translational Sciences (NCATS).
